Sa ugtP lethal – compounds lethal to S. aureus RN4220 ugtP deletion mutant. 330,000 compounds, 0.54% hits. OD600 growth, 16 h; some inactives read as strong as hits. growth inhibition, % (no concentration beside the values);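 active = z-score under -3 and OD600 up to 0.15 on both plates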;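 note: plate controls were untreated wells for no effect and antibiotic for full effect; wells of about 80 µL received 100 nL stock; the first replicate is given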
PrP 5UTR inh – suppresses PrP 5' UTR mRNA reporter expression; cell-based PrP 5' UTR mRNA reporter, plate reader; inhibition, % (no concentration beside the values); 340,000 compounds, 0.35% hits; AID 488862;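 active = every replicate at 50% or more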;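 note: 0 = median of the neutral control wells; tested in H4 reporter cells; numbers are from one replicate; inactives centre near -14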
Sa RN4220 lethal – kills Staphylococcus aureus RN4220 | S. aureus RN4220 growth, OD600, 16 h | inhibition, % (no concentration beside the values) | 330,000 compounds, 0.33% hits;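 active = z-score of -3 or lower and OD600 up to 0.18 on both plates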;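 note: plate controls were untreated cells for no effect and reference antibiotic for full effect; stock transfer was 100 nL into about 80 µL; one replicate is shown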
BJeLR lethal – BJeLR cell viability loss | BJeLR (HRASV12) viability, CellTiter-Glo ATP luminescence, 48 h; reference of the scale not given here | inhibition, % (concentration not given with the values) | 300,000 compounds, 0.17% hits;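 active = replicate mean above 50%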;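 note: 50 nL library stock added to about 25 µL; numbers are from one replicate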
Mtb hypoxia inh – inhibitors of hypoxia-regulated fluorescent reporter in Mycobacterium tuberculosis | 300,000 compounds, 0.1% hits | fluorescence inhibition, % (no concentration beside the values) | M. tuberculosis hypoxia-regulated fluorescent reporter, fluorescence | AID 1159583;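 active = 35 to 45% if threefold the growth effect, above 45% if 1.5-fold the growth effect; inactive = the rest, general growth blockers included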;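 note: wells of about 50 µL received 100 nL stock; 0% = vehicle wells and 100% = reference inhibitor wells; whole bacteria with a GFP reporter of the hypoxia response; strong numbers were not always called active; many hits fall short of the cut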
Bead autofluor – counter-screen for toxin protease inhibitors: compound fluorescence | compound autofluorescence counterscreen, microsphere flow cytometry; stronger effect = higher value | fluorescence intensity (no concentration beside the values) | 360,000 compounds, 3.1% hits;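 active = at least 3 SD above the mean of all compounds, about 16000 in these data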;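 note: 100 nL of 1 mM stock went into each well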
Mtb hypoxia inh growth – second read-out of Mtb hypoxia inh, no call of its own (marks repeat the call); growth inhibition, %; measured here: M. tuberculosis growth (absorbance);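 0% = vehicle and 100% = reference antibiotic; read after six days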
Active calls of the source: *; / = no result given; & = joins results of further samples.

A first look:
SMILES	Sa ugtP lethal	PrP 5UTR inh	Sa RN4220 lethal	BJeLR lethal	Mtb hypoxia inh	Mtb hypoxia inh growth	Bead autofluor
CCOC(=O)N1CCC(N(CCN(C)C)C(=S)Nc2ccc(F)c(Cl)c2)CC1	-3	-11	2.2	-1	17	1	1982
CCN(C[C@H]1N[C@@](C)(C(=O)OC)[C@H]2C(=O)N(Cc3ccccc3)C(=O)[C@@H]12)S(=O)(=O)c1ccc(OC)cc1	-1	53	-0.9	/	4	2	3900
Cc1cc(C)nc(N=C(N)Nc2ccc(OCc3ccccc3)cc2)n1	1	/	1.6	/	-8	20	/
CCC(=O)Nc1cccc(NC(C)=O)c1	-7	/	-16	4	-1	2	/
O=C(CSc1nnc(-c2c[nH]c3ccccc23)o1)N1CCCCC1	-2	-26	5.5	0	1	-3	7731
Cc1c([N+](=O)[O-])c([N+](=O)[O-])nn1CC(=O)NCc1cccnc1	8	-31	2.3	-4	9	-1	4799
O=c1oc2ccccc2cc1-c1nc(-c2cccs2)cs1	-9	-37	7.6	1	-4	4	8352
Fc1ccccc1N1CCN(CCCNc2ccc3nncn3n2)CC1	-2	14	1.0	-7	-2	-1	5928
CN1C(=O)NC(NC(=O)C2CCCCC2)(C(F)(F)F)C1=O (centres undefined)	-3	-22	-1.5	13	/	/	2132
O=C(O)c1cc(-c2ccc(Cl)cc2)n(-c2ccccc2)n1	7	-24	1.4	2	-2	9	4092
Cc1ccc(C2N(c3ccc(F)cc3)C(=O)C3CCCN32)cc1 (centres undefined)	11	8	2.9	-1	/	/	6861
COc1cc(C(=O)NNC(=O)C2CC2)cc(OC)c1OC	0	-3	-0.3	-3	0	8	5390
CCOC(=O)C(CC)(CC)C(=O)/C=C/c1cccc(Br)c1	7	-26	-4.6	48	7	16	3465

Results (from the top)
SMILES	Sa ugtP lethal	PrP 5UTR inh	Sa RN4220 lethal	BJeLR lethal	Mtb hypoxia inh	Mtb hypoxia inh growth	Bead autofluor
CCOC(=O)N1CCC(N(CCN(C)C)C(=S)Nc2ccc(F)c(Cl)c2)CC1	-3	-11	2.2	-1	17	1	1982
CCN(C[C@H]1N[C@@](C)(C(=O)OC)[C@H]2C(=O)N(Cc3ccccc3)C(=O)[C@@H]12)S(=O)(=O)c1ccc(OC)cc1	-1	53	-0.9	/	4	2	3900
Cc1cc(C)nc(N=C(N)Nc2ccc(OCc3ccccc3)cc2)n1	1	/	1.6	/	-8	20	/
CCC(=O)Nc1cccc(NC(C)=O)c1	-7	/	-16	4	-1	2	/
O=C(CSc1nnc(-c2c[nH]c3ccccc23)o1)N1CCCCC1	-2	-26	5.5	0	1	-3	7731
Cc1c([N+](=O)[O-])c([N+](=O)[O-])nn1CC(=O)NCc1cccnc1	8	-31	2.3	-4	9	-1	4799
O=c1oc2ccccc2cc1-c1nc(-c2cccs2)cs1	-9	-37	7.6	1	-4	4	8352
Fc1ccccc1N1CCN(CCCNc2ccc3nncn3n2)CC1	-2	14	1.0	-7	-2	-1	5928
CN1C(=O)NC(NC(=O)C2CCCCC2)(C(F)(F)F)C1=O (centres undefined)	-3	-22	-1.5	13	/	/	2132
O=C(O)c1cc(-c2ccc(Cl)cc2)n(-c2ccccc2)n1	7	-24	1.4	2	-2	9	4092
Cc1ccc(C2N(c3ccc(F)cc3)C(=O)C3CCCN32)cc1 (centres undefined)	11	8	2.9	-1	/	/	6861
COc1cc(C(=O)NNC(=O)C2CC2)cc(OC)c1OC	0	-3	-0.3	-3	0	8	5390
CCOC(=O)C(CC)(CC)C(=O)/C=C/c1cccc(Br)c1	7	-26	-4.6	48	7	16	3465
CCN(c1ccccc1)S(=O)(=O)c1ccc(Cl)c(NC(=O)CSc2nncs2)c1	-8	2	3.2	7	5	-3	2538
O=C(Nn1cnnc1)c1ccccc1F	13	-19	2.9	-14	11	-5	4006
CSCCCNC(=O)c1ccccc1OC1CCN(S(C)(=O)=O)CC1	3	-17	3.8	4	-6	7	5343
O=C(c1ccoc1)N1CCC2(CC1)Oc1ccc(Cl)cc1C(=O)C21CC(c2ccccc2)=NO1 (centres undefined)	-23	-18	8.9	-4	5	7	3002
C=C(C)Cn1c(N2CCN(c3ccc(OC)cc3)CC2)nc2c1c(=O)n(C)c(=O)n2C	-67	-43	14	4	13	6	3887
CC(=O)Nc1ccc(NC(=O)C2CCCN(S(=O)(=O)c3ccc(-n4cnnn4)cc3)C2)cc1 (centres undefined)	/	-24	/	2	/	/	5343
COCCN(C(=O)CC1C(=O)NCCN1Cc1ccc(-c2ccccc2)cc1)C(C)C (centres undefined)	6	-18	2.7	5	1	2	3217
Cc1nc(C(=O)Nc2ccccc2)sc1C1(C)CC(c2cccnc2)=NO1 (centres undefined)	-11	-28	-13	7	4	-1	2860
Nc1cccc(C(=O)NCCNC(=O)c2cccc(N)c2)c1	3	-15	1.1	1	5	5	3573
CCC(C)NS(=O)(=O)c1ccc(NC(=O)C(Sc2ccccc2)c2ccccc2)cc1 (centres undefined)	-3	-28	12	1	6	1	11305
CC(C)(C)c1cc(CN2CCOCC2)c(C(=O)O)o1	2	-16	2.4	-13	/	/	/
CC(C)(C)NC(=O)C(c1ccccn1)N(C(=O)c1csnn1)C1CCCC1 (centres undefined)	14	-15	4.1	4	-4	5	4478
SMILES	Sa ugtP lethal	PrP 5UTR inh	Sa RN4220 lethal	BJeLR lethal	Mtb hypoxia inh	Mtb hypoxia inh growth	Bead autofluor
O=C(c1ccco1)N1CCN(C(=O)c2ccc(COc3ccc(Cl)cc3Cl)o2)CC1	-2	-5	5.3	-2	4	-5	9410
Cc1cc(C)cc(S(=O)(=O)Cc2noc(C(=O)NCc3ccccc3)c2C(=O)NCc2ccccc2)c1	2	-4	3.1	/	-7	10	3562
Nc1cccc(C(=O)Nc2ccc(N)cc2Cl)c1	2	-23	5.5	-3	2	3	8312
CCCCN(CC)CCNS(=O)(=O)c1ccc2c(c1)oc(=O)n2C	5	-10	2.1	8	9	1	15823
CCN(CC)P(=O)(Nc1ccccc1Br)c1ccc(N(C)C)cc1NC(=O)c1ccco1 (centres undefined)	10	-80	7.0	-18	-3	3	3306
COc1ccc(C(=O)C2CCCN(C(=O)c3noc4c3CCCC4)C2)c(C)c1 (centres undefined)	4	-15	11	28	2	6	4063
CCOC(=O)N1CCc2c(sc(NC(=O)CN3CCOCC3)c2C#N)C1	0	/	5.2	-8	12	5	/
CCc1ccc(-c2cc(C(=O)Nc3c(C)n(C)n(-c4ccccc4)c3=O)c3ccccc3n2)s1	0	-9	0.5	-12	7	21	10696
Cc1ccc(S(=O)(=O)Cn2cnnn2)cc1	-5	-42	-4.5	-1	-6	3	24828*
O=C(c1ccc(Cl)nc1)c1cccs1	11	/	7.1	6	14	10	/
COc1ccc(-c2nc(CS(=O)(=O)CC(=O)NCc3ccccc3Br)c(C)o2)cc1	-13	-14	-7.7	-5	4	6	5936
OCCN(CCO)CC(O)COc1ccc(Br)cc1 (centres undefined)	7&-1	-2	2.9&-1.0	-4&-6	13&-9	4&-5	4831&5561
CCN(CC)C(=O)Oc1ccccc1NC(C)=O	0	-40	4.2	0	3	11	20729*
COc1cccc(-n2c(C)c3c(OC)cccc(=O)c3c2C)c1	30	-24	12	4	5	9	3614
CN(c1nc2ccccc2nc1Cl)S(=O)(=O)c1ccccc1	6	-24	5.7	6	12	-2	3662
O=C(CSc1nc(-c2cccs2)nc2ccccc12)NC1CCS(=O)(=O)C1 (centres undefined)	0	3	2.3	/	-17	-3	8618
COc1cc(OC)cc(C(=O)Nc2ccc(S(=O)(=O)Nc3cc(C)nc(C)n3)cc2)c1	7	/	2.3	-10	0	-3	/
Cc1ncc(S(=O)(=O)C(C)(C)C)c(N)n1	-1	-16	2.0	-4	-6	10	4481
CCCCc1nc2cc(C(=O)NCc3cc(C)n(C)n3)ccc2o1	-2	-7	2.3	-3	7	7	4257
CC(=O)CCc1c(C)[nH]c2ccc(NC(C)=O)cc2c1=O	14	-15	5.0	-1	3	1	7394
Clc1cnc(Nc2cccnc2)c(Cl)c1	6	-14	2.3	-7	-6	5	3459
O=C(CCNS(=O)(=O)c1ccc(Br)s1)NCc1ccccc1	2	-8	3.2	-3	1	-2	3443
COc1ccc(N(CC(=O)NCCOc2ccccc2)S(=O)(=O)c2ccc(C)cc2)cc1	-3	1	8.9	4	6	1	3069
CC(=O)c1cnc(Nc2nc(C)c3ccc(C)cc3n2)nc1C	-4	-19	-2.3	-1	-12	-5	4324
CCOc1ccc(CN2CCCC(CO)(Cc3ccccc3F)C2)cc1 (centres undefined)	5	-12	2.1	-7	22	5	/
SMILES	Sa ugtP lethal	PrP 5UTR inh	Sa RN4220 lethal	BJeLR lethal	Mtb hypoxia inh	Mtb hypoxia inh growth	Bead autofluor
CC(C)N(C(=O)C[n+]1ccc(C=NO)cc1)C(C)C	-1	/	3.6	/	-3	-9	/
Cn1cc(CN2CCC(CO)CC2)c(-c2ccc(Oc3ccccc3)cc2)n1	0	-38	-0.8	-3	1	9	4905
CC(C)(C)c1ccccc1OCCOCCN1CCCCCC1	-4	-11	2.3	19	13	9	3612
CC(=O)Nc1ccc(OC(=O)c2cc([N+](=O)[O-])ccc2Cl)cc1	2	-15	2.0	-1	1	-3	9711
Cc1cc(=O)oc2cc(NC(=O)C3CC(=O)N(Cc4ccccc4)C3)ccc12 (centres undefined)	7	-16	-0.7	-2	/	/	5029
COC(=O)c1ccc(-c2ccc(C3C4C=CCC(C)C4C(=O)N3Cc3ccccc3)c(F)c2)cc1 (centres undefined)	9	/	1.0	/	-3	19	/
O=C(CSc1ncccn1)Nc1ccc(N2CCOCC2)cc1	12	-31	-3.5	1	/	/	2829
CCC(=O)Nc1ccc(C(=O)COC(=O)Cc2ccsc2)cc1	-5	-4	-4.1	/	3	10	5443
COc1ccc(C2NC3=C(CCC3)C3(C#N)C4(N=C(N)C23C#N)OCCO4)cc1 (centres undefined)	3	-6	15	1	-7	-6	2821
Nc1cc(C(F)(F)F)cc([N+](=O)[O-])c1N	1	-4	4.9	6	3	7	3952
COc1cc(C(=O)NCC(=O)OCc2ccccc2Cl)cc(OC)c1OC	1	-28	2.9	-2	-1	0	4527
CCCCCCCCCCOC(=O)C[N+](C)(C)C/C=C(/C)Cl	100*	-30	16	-3	1	-8	2188
N#CCN1CCCC(C(N)=O)C1 (centres undefined)	2	-12	0.8	-26	-5	-2	4364
COc1ccc(-c2nnc(SCC(=O)NC(=O)NCc3ccco3)o2)cc1	-22	-12	1.5	-6	8	3	9479
COC(=O)Cn1cnc2scc(-c3ccc(C)c(C)c3)c2c1=O	9	-5	2.8	-2	7	6	3013
Cc1ncoc1C(=O)N1CCCC(N2CCN(c3ccccc3F)CC2)C1 (centres undefined)	-4	-19	-0.8	6	-4	7	5482
O=C(CNC(=O)c1ccccc1F)OCc1nc2ccccc2s1	1	-15	5.7	0	5	18	4270
Cc1csc(NC(=O)CCNC(=O)c2ccccc2Cl)n1	4	-10	3.2	7	9	13	3310
Cn1c(=O)oc2cc(S(=O)(=O)N3CCC(C(=O)NCc4ccccc4Cl)CC3)ccc21	-1	-2	0.9	13	9	-1	5748
CCNC(=O)Cc1c(OC)ccc2cc(Br)ccc12	-6	-38	-0.4	4	7	4	2328
S=C(NCCc1ccccc1)Nc1ccc(Cl)cc1	-4	-63	-4.4	-16	6	10	1999
CCOc1ccc(OCCC(=O)NNC(=O)c2nn(C)c(=O)c3ccccc23)cc1	2	-6	-0.9	-6	1	-2	5853
CC1(c2ccccc2)NC(=O)N(CC(=O)Nc2ccc(Cl)c(S(=O)(=O)N3CCCCC3)c2)C1=O (centres undefined)	-27	10	-8.0	-9	-2	11	5888
Cc1ccccc1C(=O)/C=C1/SCC(=O)N1C	11	-17	4.5	19	14	-1	5015
O=S1(=O)[C@H]2C[C@@H]3C=C[C@@]2(CN1Cc1ccccc1F)O3	-2	-7	-15	-5	9	4	3693

Assay outcomes (PubChem)
